Bioassay records (PubChem BioAssay)
SARS PLP yeast: SARS-CoV PLP inhibition in yeast; S. cerevisiae expressing SARS-CoV PLpro, growth rescue; control for the full effect not named in the record; Potency, µM (highest dose often 32.9 µM), inactives show at the highest dose activity, positive = growth rescue; actives 0.19% (n = 330,000); AID 485353; active means well fitted rising curve with a large enough effect; inconclusive means small, poorly fitted or top-dose-only effect; inactive means no such curve, though single readings can be large or run the other way; note: 0% is about no effect; nearly all actives have a fitted effect of over 55% in size; growth read by luminescence after 48 h
LASV entry inh: inhibitors of Lassa virus binding or cell entry; AID 540256; Lassa virus pseudotype entry inhibition, cell reporter; control for the full effect not named in the record; Potency, µM (series often up to 37.9 µM), without a hit: top-dose activity change, negative = inhibition, hits mostly inhibitors; actives 1.2% (n = 300,000); active means well fitted inhibition curve with a large enough effect; inconclusive means small, poorly fitted or top-dose-only effect, or effect the other way; inactive means flat fitted curve, though single readings scatter; tested in HEK293 cells; note: % is set by controls: 0 for no effect and ±100 for the full control effect; nearly all actives have a fitted effect of over 50% in size; luciferase read-out
Cruzain inh noDet: blocks cruzain activity in detergent-free assay. actives 2.3% (n = 200,000). purified cruzain, Z-FR-AMC fluorescence, no detergent. P25779. Potency, µM, inactives show max response, negative = inhibition, hits mostly inhibitors;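 note: plate controls were enzyme without inhibitor for no effect and buffer without enzyme for full effect; nearly all actives have a fitted effect of over 40% in size; top concentration of the series not given in the record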
Target sequence (P25779 123-467 limits assumed): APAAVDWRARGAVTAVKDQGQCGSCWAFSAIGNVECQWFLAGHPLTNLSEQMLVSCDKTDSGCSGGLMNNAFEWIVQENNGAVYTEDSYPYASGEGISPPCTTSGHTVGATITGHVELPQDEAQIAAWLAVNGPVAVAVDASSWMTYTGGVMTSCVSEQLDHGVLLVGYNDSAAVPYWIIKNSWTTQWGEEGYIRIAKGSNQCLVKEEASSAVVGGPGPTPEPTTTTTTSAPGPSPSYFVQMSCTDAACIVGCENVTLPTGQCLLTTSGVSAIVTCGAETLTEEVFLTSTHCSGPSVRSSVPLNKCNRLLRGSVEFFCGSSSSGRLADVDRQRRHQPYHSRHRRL
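Detergent-free condition (0.00005% Triton X-100) in acetate buffer pH 5.5 with DTT. 1.5 nM enzyme and compound were pre-mixed 15 min, then 2 uM Z-FR-AMC substrate added; reaction progress from fluorescence change between first and third reads (60 s).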
NS1 function inh: influenza NS1 inhibition. S. cerevisiae slowed by influenza A NS1, growth recovery by OD600. Potency, µM (titrated, usually from 46.1 µM), without a hit: at the highest dose activity, positive = more growth. actives 0.4% (n = 270,000); active means well fitted rising curve with a large enough effect; inconclusive means small, poorly fitted or top-dose-only effect; inactive means no such curve, though single readings can be large or run the other way; note: nearly all actives have a fitted effect of over 50% in size
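In this qHTS, NS1 from influenza A is expressed in budding yeast, where it slows growth. Cells are switched from glucose to 2% galactose medium (pH 6.0, -URA), treated with compound, and growth recovery is read at OD600.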
StopGo reporter: FMDV 2A StopGo reporter, luciferase signal. human cells with a luciferase reporter of 2A StopGo recoding; control for the full effect not named in the record. Potency, µM (top dose mostly 57.9 µM), inactives show at the top dose signal change, negative = less light. actives 1.2% (n = 410,000). AID 1159524; active = well fitted falling curve with a large enough effect; inconclusive = small, poorly fitted or top-dose-only effect; inactive = no such curve, though single readings can be large or run the other way; tested in HEK293T cells; note: % is set by controls: 0 for no effect and ±100 for the full control effect; nearly all actives have a fitted effect of over 45% in size; luciferase light after 4 h
Marburg entry inh: inhibitors of Marburg virus binding or cell entry. Marburg virus pseudotyped entry inhibition, cell reporter; control for the full effect not named in the record; about a third of the inactives were read at about 46 µM. Potency, µM (doses to about 37.8 µM), for the others: at the highest dose activity change, negative = inhibition, actives largely listed as inhibitors. actives 1.8% (n = 300,000); active = well fitted inhibition curve with a large enough effect; inconclusive = small, poorly fitted or top-dose-only effect, or effect the other way; inactive = flat fitted curve, though single readings scatter; tested in HEK293 cells; about a fifth of its hits are not listed in these tables; note: % is set by controls: 0 for no effect and ±100 for the full control effect; luciferase read-out
RE007 growth inh: less growth of the S. pombe RE007 Vpr strain. S. pombe RE007 Vpr strain, BacTiter-Glo ATP luminescence, 24 h; control for the full effect not named in the record. Potency, µM (top dose mostly 92.2 µM), without a hit: at the top dose activity change, negative = less growth. actives 0.21% (n = 360,000). AID 651644; active = well fitted falling curve with a large enough effect; inconclusive = small, poorly fitted or top-dose-only effect; inactive = no such curve, though single readings can be large or run the other way;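 note: % is set by controls: 0 for no effect and ±100 for the full control effect; nearly all actives have a fitted effect of over 50% in size; the assay follows cell death caused by Vpr and the record does not say whether a fall means rescue or toxicity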
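Fission yeast RE007 carrying one integrated HIV-1 vpr copy, seeded at OD 0.01 in PMG+AL medium with 23 nL pinned compound. Grown 24 h at 30 degrees; viability read by BacTiter-Glo luminescence after 5 min.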
Cruzain inh Det: inhibitors of Trypanosoma cruzi cruzain with detergent; purified cruzain, Z-FR-AMC fluorescence, 0.01% Triton; AID 1478; actives 0.43% (n = 200,000); Potency, µM, for the others: max response, negative = inhibition, most hits filed as inhibitors;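 note: plate controls were neutral wells for no effect and buffer without enzyme for full effect; nearly all actives have a fitted effect of over 40% in size; top concentration of the series not given in the record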
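Z-FR-AMC hydrolysis (2 uM substrate) by cruzain (1.5 nM) monitored kinetically at ex 360/em 450 nm after 15 min room-temperature compound exposure; 0.01% Triton X-100, pH 5.5, 5 mM DTT.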
Numbers without * were called inactive; ? = inconclusive; nt = not tested or not shown; & = joins results of further samples; [ ] = dose if it differs, or a comment. Unless noted, calls come from the whole dose curve; as a rule, active = well fitted curve in the direction sought with a large enough effect; inconclusive = small, poorly fitted or top-dose-only effect, or another doubt; inactive = no such curve, though single readings can be large; an effect the other way counts as inactive or inconclusive. Potency is the fitted concentration of half-maximal effect.

SMILES	SARS PLP yeast	LASV entry inh	Cruzain inh noDet	NS1 function inh	StopGo reporter	Marburg entry inh	RE007 growth inh	Cruzain inh Det
O=C(CCCN1C(=O)c2ccccc2C1=O)Nc1nncs1	10%	11%	5%	7%	-12%	9%	5%	-0.8%
N#Cc1c[nH]n2c(NC3CCCC3)c(-c3cccc(Cl)c3)nc12	nt	-21%[46.1 µM]	2%	nt	-8%	?	nt	-4.2%
Cc1cn(C(=O)c2ccccc2)c(=S)n1-c1ccc(Cl)cc1	0%	-2%	16%	-8%	?	?	-28%	-12%
O=C(Nc1cccc(-c2cn3cccnc3n2)c1)Nc1ccccc1F	-1%	?	nt	nt	-24%	?	-2%	nt
COc1ccc(C)cc1-n1nnnc1SCc1nc2ccccc2s1	-6%	-1%	-8%	5%	14%	?	-15%	1.5%
COc1ccc(CCNC(=O)c2cc(C3CC3)on2)cc1OC	-2%	nt	nt	-5%	-6%	nt	-2%	nt
CC1CSC(N(C(=O)c2ccc(S(C)(=O)=O)cc2)c2ccc(Cl)cc2)=N1 (stereo unspecified)	-3%	nt	nt	-6%	-14%	nt	-9%	nt
CCCC(=O)N1CCN(c2ccc(NC(=O)c3ccc(N4CCCC4)c([N+](=O)[O-])c3)cc2Cl)CC1	nt	0%	nt	nt	?	?	-19%	nt
O=C(c1ccccc1)C(C(=O)N1CCCCC1)n1ccccc1=O (stereo unspecified)	0%	nt	nt	5%	5%	nt	8%	nt
Cc1ncc(CO)c2c1Oc1nc(-c3ccc(Cl)cc3)nc(SCC(=O)N3CCCCC3)c1C2	nt	12%[46.1 µM]	5%	nt	-22%	nt	nt	-4.0%
CCC1CCCCN1C(=O)Cn1nc([N+](=O)[O-])c(Cl)c1C (stereo unspecified)	-3%	19%[46.1 µM]	nt	nt	-19%	-7%[46.1 µM]	13%	nt
Cn1nc(C(F)(F)F)cc1C(=O)Nc1ccc(-c2ccno2)cc1	-5%	-26%[46.1 µM]	nt	-7%	-23%	-29%[46.1 µM]	7%	nt
CCOC(=O)C1=C(C)NC(C)=C(C(=O)OCC)C1C(=O)OCC(=O)NCCc1ccc(S(N)(=O)=O)cc1	5%	?	nt	nt	3%	?	43%	nt
Cc1cccc(Nc2nc(-c3ccc(F)c(C)c3)cs2)n1	-12%	?	nt	2%	18%	?	-11%	nt
CC(C)Sc1nc(N)c2c3c(sc2n1)CN(C)CC3	-4%	29%	-5%	6%	61%[activator]	3%	-4%	-3.4%
COc1ccccc1NC(=S)Nc1ccccn1	?	4%	8%	-1%	40%[activator]	14%	nt	-4.7%
COc1ccc(OCC(=O)NC(=S)Nc2ccc(N3CCOCC3)c(Cl)c2)cc1	-7%	18%	-24%	4%	-21%	15%	?	-16%
Cc1ccc(C(=O)C2CCNCC2)cc1	2%	24%	-11%	3%	12%	-38%	-5%	8.8%
CN(/C=C/C(=C\C=[N+](C)c1ccccc1)OCCCS(=O)(=O)[O-])c1ccccc1	-1%	4%	nt	3%	10%	-18%	-7%	nt
CC(C)[C@H](NC(=O)c1cccc(S(=O)(=O)N2CCOCC2)c1)C(=O)NCc1ccc(F)cc1	10%	2%	nt	nt	-10%	?	-7%	nt
c1ccc2c(c1)nc(N1CCCCCC1)c1ccccc12	-2%	?	nt	-7%	-23%	?	?	nt
Cc1ccc(S(=O)(=O)N(C)C)cc1-n1c(SCC(=O)Nc2ccccc2)nc2ccccc2c1=O	-5%	?	16%	?	-21%	?	-5%	-2.8%
O=C(N/N=C/c1ccc(-c2ccccc2[N+](=O)[O-])o1)[C@H]1C[C@@H]1c1ccccc1	-18%	0.82µM*	?	-8%	14%	?	0%	-9.2%
Cc1oc(S(=O)(=O)N2CCCC2)cc1C(=O)Nc1ccccc1	0%	-28%	nt	1%	-30%	-10%[46.1 µM]	2%	nt
Cc1ccccc1NC(=S)NC1CCN(Cc2ccccc2)CC1	28%	-11%	-1%	2%	6%	-10%	12%	4.7%
(cont.)
SMILES	SARS PLP yeast	LASV entry inh	Cruzain inh noDet	NS1 function inh	StopGo reporter	Marburg entry inh	RE007 growth inh	Cruzain inh Det
CCOc1ccc(C(=O)Nc2ccc3oc(-c4ccncc4)nc3c2)cc1	nt	16%[46.1 µM]	4%	nt	-19%	-3%[46.1 µM]	nt	-3.4%
O=C(Nc1ccccc1N1CCCCC1)c1ccc(-c2cc(Cl)ccc2Cl)o1	nt	10%	nt	nt	-8%	5%[46.1 µM]	-16%	nt
COC(=O)C(Cc1c[nH]c2ccccc12)NC(=O)c1cncc(Br)c1 (stereo unspecified)	-2%	nt	nt	-2%	-20%	nt	3%	nt
CCC1CCCCN1C(=O)c1sc(-n2nc(C)c(Cc3ccccc3)c2C)nc1C (stereo unspecified)	nt	5%[46.1 µM]	5%	nt	-5%	15%[46.1 µM]	nt	-1.2%
Cc1ccc(S(=O)(=O)N2CCC(C(=O)N[C@@H](C)C(=O)Nc3ccc(F)cc3)CC2)cc1	7%	1%[46.1 µM]	nt	10%	-7%	0%[46.1 µM]	2%	nt
COc1cccc(C(=O)Nc2ccc(Cl)c(C(F)(F)F)c2)c1	-36%	?	-9%	-28%	-18%	-1%	?	-13%
CC1=C(C(N)=O)C(c2cccnc2)n2nc(-c3cccc(C)c3)nc2N1 (stereo unspecified)	-4%	0%	5%	-10%	-4%	0%	-4%	-2.7%
C=CCOc1ccc(CNn2cn[nH]c2=S)cc1	-5%	0%	-1%	-4%	13%	15%	2%	4.5%
COc1cccc(C(c2c(O)cc(C)n(Cc3ccco3)c2=O)N2CCN(c3ccccc3)CC2)c1 (stereo unspecified)	nt	15%[46.1 µM]	?	nt	0%	nt	nt	0.8%
CCCN1CCC(=NNc2ccc(C(=O)O)cc2)CC1	1%	-18%	nt	7%	?	?	-7%	nt
COc1ccc(CN2C(=O)c3ccccc3C2=O)cc1C(=O)OCC(=O)NC1CCCCC1	?	-1%	6%	-8%	0%	0%	2%	-4.5%
CC(=O)Nc1ccc(C2NC(=O)c3ccccc3O2)cc1 (stereo unspecified)	-1%	0%	-9%	-14%	6%	0%	0%	4.1%
O=C(Nc1ccc2ccccc2c1)c1ccc(Cl)cc1	13%	nt	nt	13%	-12%	nt	0%	nt
Cc1ccc(C(=O)n2c(-c3ccccc3)cnc2SCC(=O)Nc2ccccc2)cc1	12%	1%	?	-1%	0%	?	0%	-4.8%
CC(=NCCc1c(C)[nH]c2ccc(C)cc12)C1=C(O)CC(c2ccccc2)CC1=O (stereo unspecified)	-35%	?	9%	11%	?	?	-6%	-6.2%
CCc1cc2c(N=Nc3c(O)[nH]c4ccccc34)ncnc2s1	?	-3%	-14%	13%	-21%	14%	5%	-1.5%
CSc1nc(SCCO)c2sc3nc(-c4ccco4)c4c(c3c2n1)CC(C)(C)OC4	7%	0%	?	1%	-21%	21%&21%	-24%	?
Cc1ccc(N2C(=O)c3ccc(C(=O)O)cc3C2=O)cc1C	-5%	12%	-4%	-6%	27%	11%	-1%	1.8%
COc1ccccc1C1/C(=C(/O)c2ccc(C)cc2)C(=O)C(=O)N1CC(C)O (stereo unspecified)	-5%	3%	4%	?	-10%	0%	-3%	-0.2%
Cc1ccc(C)c(NC(=O)N2CCCCCC2)c1	4%	nt	nt	10%	7%	nt	5%	nt
O=C(NNc1cccc(Cl)n1)Nc1ccccc1	0%	12%	-4%	16%	30%	14%	19%	5.2%
O=C(Cc1ccccc1)N[C@@H](Cc1ccccc1)C(=O)O	1%	nt	nt	7%	-2%	nt	9%	nt
Cc1cc(C)cc(NS(=O)(=O)c2ccc3[nH]cc(C(=O)N4CCc5ccccc54)c(=O)c3c2)c1	-5%	0%	-1%	22µM*	26%	0%	8%	-6.7%
COc1cc(S(=O)(=O)NCCc2c(C)[nH]c3ccccc23)c(C)cc1C	nt	?	16%	nt	34%[activator]	?	nt	-15%
CC(NC(=O)C12CC3CC(CC(C3)C1)C2)C(=O)N/N=C/C1=C(N2CCOCC2)C(=C\c2cccc([N+](=O)[O-])c2)/CC1 (stereo unspecified)	-7%	-1%	-21%	3%	-9%	?	19%	-7.1%
(more compounds)
SMILES	SARS PLP yeast	LASV entry inh	Cruzain inh noDet	NS1 function inh	StopGo reporter	Marburg entry inh	RE007 growth inh	Cruzain inh Det
Cc1ccc2nc(C)cc(C(=O)N/N=C/c3ccncc3)c2c1	0%	nt	nt	4%	4%	nt	-13%	nt
O=C(NNS(=O)(=O)c1ccccc1)c1cccnc1	1%	nt	3%	-5%&2%	-2%	nt	-6%	0.9%
CC1CCCCN1C(=O)CSc1c2c(nc3cc(Cl)ccc13)CCCC2 (stereo unspecified)	nt	2%[46.1 µM]	-19%	nt	?	7%[46.1 µM]	nt	-11%
CC1CCCC(C(=O)O)N1C(=O)CCSC(=O)c1ccccc1 (stereo unspecified)	3%	24%[14.3 µM]	-12%	-4%	7%	10%	-1%	0.7%
O=C(NC1CCS(=O)(=O)C1)OC1CCCCC1 (stereo unspecified)	5%	15%	2%	-6%	nt	0%	1%	0.2%
CCc1ccccc1N(C(C)=O)c1nc(CCl)cs1	0%	nt	nt	3%	-17%	nt	9%	nt
Cn1cc(S(=O)(=O)Nc2ccc(OC(F)(F)F)cc2)c(=O)n(C)c1=O	10%	20%[46.1 µM]	nt	8%	-14%	21%[46.1 µM]	-8%	nt
CCCC(=O)NC1=C(C#N)C2(CCCCC2)Cc2ccccc21	5%	-5%	-8%	-6%	-32%	0%[46.1 µM]	-10%	-3.9%
CCc1ccccc1N1C(=O)N(Cc2ccccc2C)c2ccccc2S1(=O)=O	nt	?	-15%	nt	17%	nt	nt	-0.1%
CCC(Sc1nc(-c2ccc(F)cc2)nc2c1Cc1c(CO)cnc(C)c1O2)C(=O)Nc1ccc(F)cc1 (stereo unspecified)	nt	3%[46.1 µM]	9%	nt	-3%	nt	nt	0.4%
Cc1nn(C)cc1/C=N/n1nnnc1N	-1%	6%	3%	-11%	24%	3%	6%	5.0%
COc1ccccc1NS(=O)(=O)c1cc(NC(=O)c2ccc3ccccc3n2)ccc1Cl	6%	5%	?	24%	64%[activator]	?	-6%	-2.8%
